Source: PubChem (National Center for Advancing Translational Sciences (NCATS))
AmpC nodet inh: Promiscuous and Specific Inhibitors of AmpC Beta-Lactamase (assay without detergent) | P00811 | AmpC nitrocefin hydrolysis, absorbance 480 nm, no detergent; potencies from a single point are estimates | Potency, µM (top dose mostly 28.7 µM), without a hit: top-dose activity change, negative = inhibition | hit rate 1.8% among 71,000; active = falling curve, for most hits resting on a single point; inconclusive = weak or doubtful change; inactive = flat or rising curve; further: % of control where 0% means no effect; about half of the hits show no inhibition at the top dose; a quarter of the inactives give rising signals
Target sequence (P00811 whole entry, looked up): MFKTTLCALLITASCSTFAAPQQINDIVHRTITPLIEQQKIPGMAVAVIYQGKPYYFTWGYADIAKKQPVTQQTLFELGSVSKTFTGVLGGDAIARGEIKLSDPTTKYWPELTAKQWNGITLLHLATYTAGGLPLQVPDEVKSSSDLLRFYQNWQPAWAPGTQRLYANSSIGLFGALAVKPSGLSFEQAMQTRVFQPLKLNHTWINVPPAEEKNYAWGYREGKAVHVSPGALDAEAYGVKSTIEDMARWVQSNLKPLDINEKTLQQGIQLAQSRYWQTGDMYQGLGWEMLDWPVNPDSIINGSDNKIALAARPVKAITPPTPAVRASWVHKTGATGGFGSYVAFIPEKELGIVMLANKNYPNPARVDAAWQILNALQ
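AmpC, 20 mM phosphate pH 7.0; 15 min cpd preinc, RT; start with nitrocefin (800 uM stock); A480 kinetic read, 20 s intervals, 4 min. No-enzyme wells = negative control.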
Starred values were filed as active, the others as inactive; [ ] = dose if it differs, or a comment. Potency means the concentration at half of the fitted maximal effect. Not all compounds are listed, so the mix of outcomes need not match the whole.

SMILES | AmpC nodet inh
c1cc(Nc2ncnc3sccc23)cc(-c2nnc3n2CCCCC3)c1 | 40%
Cc1cc(C)n2nc(SCN3C(=O)c4ccccc4C3=O)nc2n1 | 1%
CCOC(=O)c1ccc2c(c1)nc(SCC(=O)c1ccco1)n2CC | 48%
COc1ccc(NCc2ccc3c(c2)OCO3)cc1Cl | -6%
Nn1cnnc1 | -5%
CN(C)c1oc(-c2ccccc2Cl)nc1S(=O)(=O)c1ccccc1 | 4µM*[single pt active]
CCOC(=O)CSc1nc2cc(C)ccc2cc1C#N | 1%
Cc1cc(C)c2c(N)c(C(=O)N3CCN(c4ncccn4)CC3)sc2n1 | 35%
CCCn1c(-c2ccc(OC)cc2)nc2nc3ccccc3nc21 | 80%
COc1ccc(S(=O)(=O)N2Cc3ccccc3CC2C(=O)Nc2nccs2)cc1OC (stereo unspecified) | 22%
O=C(O)[C@@H]1[C@@H](C(=O)Nc2ncccn2)[C@@H]2C=C[C@@H]1O2 | 8%[5.75 µM]
Cc1cc(C)nc(NS(=O)(=O)c2ccc(Br)s2)c1 | -11%
COc1ccc(C2=C(O)C(C)N(c3ccccc3)C2=N)cc1OC (stereo unspecified) | -7%
COc1ccc(CCCc2nnc(SCC(=O)Nc3nc(C)cs3)n2C)cc1 | 37%
Cn1nnnc1SCC(=O)N1c2ccccc2Sc2ccccc21 | 35%
O=c1c2[nH]c3ccccc3c2ncn1CCN1CCNCC1 | -8%
CC(C)OC(=O)c1cc(NC(=O)C2C3CCC(O3)C2C(=O)O)cc(C(=O)OC(C)C)c1 (stereo unspecified) | 10%
COc1ccc(C)cc1-n1nnnc1SCC1CCCCO1 (stereo unspecified) | 32%
O=C(O)CCC(=O)OCC1CCCO1 (stereo unspecified) | -6%
O=C(O)[C@H]1C2c3ccccc3C(c3ccccc32)[C@@H]1C(=O)NCC1CC1 | -14%[5.75 µM]
O=C1CCCCCN1C(=O)c1cccc(C(=O)N2CCCCCC2=O)c1 | 17%
Cc1ccc(NS(=O)(=O)c2cn(C)cn2)cc1 | 5%
CC(C)n1nc(C(=O)Nc2nc3ccc(S(C)(=O)=O)cc3s2)c2ccccc2c1=O | 28%
CCCCC(=O)Nc1ccc(N2CCN(C(=O)CC)CC2)cc1 | 126%
Cc1ccc(N2CCN(c3cc(C)nc4nc(C)nn34)CC2)c(C)c1 | 48%
N#Cc1nc(-c2ccco2)oc1NCc1ccc(F)cc1 | -9%
CCOC(=O)N1CCC(Nc2c(-c3ccc(C)c(C)c3)c(=O)c2=O)CC1 | 14%
CCn1c(=O)c2ccccc2n2c(SCC(=O)NCc3cccs3)nnc12 | 0%
CCCN1CCN(CCCNC(=O)Cn2cc3c(n2)CCCC3)CC1 | -1%
CC(C)C(c1nnnn1C1CCCC1)N1CCc2ccccc21 (stereo unspecified) | 15%

Look-ups from the list.
`CCCCC(=O)Nc1ccc(N2CCN(C(=O)CC)CC2)cc1` in AmpC nodet inh reads 126%
`CCOC(=O)CSc1nc2cc(C)ccc2cc1C#N` in AmpC nodet inh reads 1%
`Nn1cnnc1` in AmpC nodet inh reads -5%
`CCCn1c(-c2ccc(OC)cc2)nc2nc3ccccc3nc21` in AmpC nodet inh reads 80%

The list continues:
SMILES | AmpC nodet inh
N#Cc1cc2c(nc1SCC(=O)N1CCCCC1)CCCCC2 | 36%
COCCN1Cc2cccc(C(=O)Nc3c(C)cccc3C)c2C1=O | 10%
O=C(O)c1ccc2noc(-c3ccccc3)c2c1 | -10%
O=S(=O)(NCc1ccco1)N1CCOCC1 | 0%
S=c1nc(-c2ccccc2)n(CCCn2ccnc2)c2c1CCCC2 | -3%
Cc1cc(C(=O)Nc2c(F)cc(F)cc2Br)no1 | 8%
O=S(=O)(NC(=NC1CCCC1)C(F)(F)F)c1ccccc1 | 1%
COc1ccccc1NC(=O)CSc1nnc(Cn2cnc3ccccc32)n1C | 12%
O=C(CN1CCC(n2nnc3cc(F)ccc32)CC1)N1CCc2ccccc2C1 | 54%
COc1ncc2nc(C)c(=O)n(C[C@H]3CCCO3)c2n1 | -1%
COc1ccc(OC)c(C2C(C(N)=O)=C(C)Nc3nc(CCCO)nn32)c1 (stereo unspecified) | -4%
CCOc1cc(C)c(S(=O)(=O)N2CCCC2)cc1C | 15%
O=C1OCc2cccc3cccc1c23 | -5%
O=C(NCCSCc1ccco1)c1ccc(CN2CCOCC2)cc1 | 26%
Clc1ccc([C@@H](c2ccccc2Cl)C(Cl)Cl)cc1 | -23%
O=C(NC(Cc1ccccc1)C(=O)OCC(=O)N1CCc2ccccc21)c1ccco1 (stereo unspecified) | 13%
O=C(NCc1ccc(F)cc1)c1ccc(CS(=O)(=O)Cc2ccccc2F)o1 | -5%
N#Cc1c(NC(=O)Cn2c(=O)oc3ccccc32)oc(-c2ccccc2)c1-c1ccccc1 | 13µM*
Cn1c(Cc2ccc3c(c2)OCO3)nnc1SCC(=O)N1CCc2ccccc2C1 | 18%
CCCn1c(SCC(=O)c2cc(OC)ccc2OC)nc2c1c(=O)n(C)c(=O)n2C | 14%
Cc1c(Cl)cccc1NC(=O)CSc1nnc(CCNC(=O)OC(C)(C)C)o1 | 36%
CN(C)C1(c2nnnn2-c2ccc(Cl)cc2)CCCCC1 | 7%
COc1ccc(-c2nnn(CC(=O)c3ccc4c(c3)OCCO4)n2)cc1OC | 62%
CCN1CCN(C(=O)CN(c2cc(OC)ccc2OC)S(C)(=O)=O)CC1 | -3%
Cn1c(=O)c2c(ncn2Cc2ccc(Cl)c(Cl)c2)n(C)c1=O | 51%
c1ccc(-n2cnnc2SCc2cn3ccccc3n2)cc1 | -9%
Cc1cc2c(s1)c1cnn(Cc3ccccc3F)c(=O)c1n2C | 57%
c1cncc(C2CC(c3cccs3)n3ncnc3N2)c1 (stereo unspecified) | 10%
O=S(=O)(Cc1ccc(Cl)cc1)NCC1CCCO1 (stereo unspecified) | 0%
O=C(CSc1nnc(Cc2cc(=O)[nH]c(=O)[nH]2)n1-c1ccc(F)cc1)NC1CCCC1 | 4µM*[single pt active]
Cc1cccc(CNc2ncnc3ccc(-c4ccc(C(=O)N(C)C)cc4)cc23)c1 | 133%
CCCC(c1nnnn1C(C)(C)CC)N1CCN(C2CCCC2)CC1 (stereo unspecified) | 6%
CCOC(=O)C1=C(c2ccccc2)Nc2nc(C)nn2C1c1cccc(OC)c1OC (stereo unspecified) | 61%
CC(C)C[C@H](NC(=O)NCCc1ccc(Cl)cc1)C(=O)O | 0%
O=C(O)c1ccc(-n2nc(C(F)(F)F)c3c2-c2ccoc2CC3)cc1 | 24%
O=C(O)C[C@@H](C(=O)O)C1c2ccccc2-c2ccccc21 | 0%[5.75 µM]
Cc1occc1C(=O)Nc1ccc2c(c1)CCC2 | -13%
COC(=O)c1ccc2c(c1)NC(=O)C1CCCN21 (stereo unspecified) | 4µM*[single pt active]
Cc1cc(C)n2nc(Cc3ccccc3)nc2n1 | -13%
Cc1ccc(SCc2nc(-c3ccncc3)no2)cc1 | 25%
COc1ccc(-c2ccc(=O)n(CC(=O)N3CCN(c4ccccc4OC)CC3)n2)cc1 | 157%
Cc1ccc(S(=O)(=O)N2c3ccc(S(N)(=O)=O)cc3CC2C)cc1 (stereo unspecified) | -1%
O=C1CCCN1CN(C(=O)c1ccc2c(c1)OCO2)c1ccc(F)cc1 | 0%
COc1ccc(CN(Cc2ccncc2)C(=O)CCC(=O)O)cc1 | 1%
CCOc1c(OC)cccc1C1CC(=O)Nc2cc3c(cc21)OCCO3 (stereo unspecified) | -3%
CCOCCCNC(=O)C1c2ccccc2C(=O)N2CCc3ccccc3C12 (stereo unspecified) | -3%
c1cncc(CNc2ncncc2-c2ccc3c(c2)OCO3)c1 | -2%
CC(=O)[C@@H]1CC[C@@H]2[C@@H]3CC=C4C[C@H](OS(=O)(=O)O)CC[C@@]4(C)[C@H]3CC[C@]21C | -12%
Cc1ccc(C)c(Cn2c(C(C)O)nc3ccccc32)c1 (stereo unspecified) | 47%
COc1ccc(Cc2nnn(CC(=O)O)n2)cc1 | -9%
O=C(N/N=C\c1cccc(O)c1)c1ccncc1 | -9%[5.75 µM]
Cc1ccc(S(=O)(=O)NC(=O)NN2CCCCCC2)cc1 | 8%[12.8 µM]
CCc1nc2c(c(=O)[nH]1)C1(CCCC1)Cc1ccccc1-2 | 0%
O=C(NCC1COc2ccccc2O1)C1CCCN(S(=O)(=O)c2cccc3nsnc23)C1 (stereo unspecified) | 15%
COC(=O)[C@@]1(Cc2ccc(OC)cc2)[C@@H]2[C@@H](CC(=O)[C@H]2CC(=O)C(=O)N2CCCC2)CN1C(=O)c1ccccc1 | 166%
COc1ccc(C2CC(c3ccccc3)Nc3nc(NC(=O)c4cccs4)nn32)cc1 (stereo unspecified) | -4%
CCN(CC)S(=O)(=O)c1ccc(C(=O)NC2=C(C(=O)OC)SCC2)cc1 | 26%
O=C(Cn1cnc2c(nnn2-c2ccccc2)c1=O)NCC1CCCO1 (stereo unspecified) | 0%
COc1ccc(C2CC(=O)c3c([nH]c(C(=O)OC(C)C)c3C)C2)cc1OC (stereo unspecified) | 38%
COc1ccc(-c2noc(-c3ccccc3C(=O)Nc3cccc(OC)c3)n2)cc1 | -4%

Of the compounds above, these contain bromine:
SMILES | AmpC nodet inh
Cc1cc(C)nc(NS(=O)(=O)c2ccc(Br)s2)c1 | -11%
Cc1cc(C(=O)Nc2c(F)cc(F)cc2Br)no1 | 8%

Remaining list, next part.
SMILES | AmpC nodet inh
COc1ccc(CN2CN(C(C)C)CSC2=S)cc1 | 0%
O=C(CC1(O)C(=O)Nc2ccc(Br)cc21)c1ccc2c(c1)OCO2 (stereo unspecified) | 0%
Cc1ccc2c(c1)N(CCC(=O)NCc1cccnc1)C(=O)CO2 | -3%
Cc1ccc(-n2nnnc2SCC(=O)Nc2ccccc2N2CCCCC2)cc1C | -6%
c1cncc(-c2nn3cnnc3s2)c1 | 5%
CCC(C)N=C1SCC(C)(/C=N/O)S1 (stereo unspecified) | 11%
CCOCCn1c(SCCc2ccccc2)nc2c1c(=O)[nH]c(=O)n2C | -5%
CC(=NCCCn1ccnc1)C1=C(O)c2ccccc2C1=O | -19%
CC1(C)C(=O)OC(c2cc(Br)ccc2O)C(C)(C)C1=O (stereo unspecified) | -14%
COc1ccccc1C(c1nnnn1C1CCCC1)N1CCN2CCCC2C1 (stereo unspecified) | 9%
CCn1c(=O)c2cc(C(=O)N3CCOCC3)sc2c2ccccc21 | 4µM*[single pt active]
Cc1ccc(NS(=O)(=O)c2cc(C(=O)N3CCOCC3)ccc2C)cc1C | 18%
Cc1cc(NC(=O)CSc2ccc3nnc(-c4cccs4)n3n2)no1 | 5%
COc1ccc(CN(Cc2ccccn2)C(=O)CN2C(=O)COc3ccccc32)cc1 | 54%
Cc1ccc(C)c(S(=O)(=O)C(C#N)c2nc3ccccc3nc2N2CCOCC2)c1 (stereo unspecified) | 9%

Random excerpt: 4 entries already listed
SMILES | AmpC nodet inh
Cc1ccc(C)c(Cn2c(C(C)O)nc3ccccc32)c1 (stereo unspecified) | 47%
Cn1c(Cc2ccc3c(c2)OCO3)nnc1SCC(=O)N1CCc2ccccc2C1 | 18%
CCN1CCN(C(=O)CN(c2cc(OC)ccc2OC)S(C)(=O)=O)CC1 | -3%
COc1ccc(CN2CN(C(C)C)CSC2=S)cc1 | 0%

The main list resumes with the 5 entries that preceded the break.
SMILES | AmpC nodet inh
CCn1c(=O)c2cc(C(=O)N3CCOCC3)sc2c2ccccc21 | 4µM*[single pt active]
Cc1ccc(NS(=O)(=O)c2cc(C(=O)N3CCOCC3)ccc2C)cc1C | 18%
Cc1cc(NC(=O)CSc2ccc3nnc(-c4cccs4)n3n2)no1 | 5%
COc1ccc(CN(Cc2ccccn2)C(=O)CN2C(=O)COc3ccccc32)cc1 | 54%
Cc1ccc(C)c(S(=O)(=O)C(C#N)c2nc3ccccc3nc2N2CCOCC2)c1 (stereo unspecified) | 9%
O=C(Cc1ccc(Cl)c(Cl)c1)OCCN1CCCC1 | -2%
O=C(C1CCCN(S(=O)(=O)c2cccs2)C1)N1CCC(N2CCCCC2)CC1 (stereo unspecified) | 4µM*[single pt active]
O=C(COc1ccc2c(c1)CCC2)N1CCc2ccccc21 | 15%
CCn1c2ccccc2c2nnc(SCN3C(=O)c4ccccc4C3=O)nc21 | -2%
COc1ccc(OC)c(C2C(C(C)=O)=C(O)C(=O)N2CCC(=O)O)c1 (stereo unspecified) | -8%
CC(C)(C)N1C(=O)c2ccc(C(=O)O)cc2C1=O | -6%
Cc1cc(C(=O)OCC(=O)Nc2ccc(F)cc2)c(C)o1 | -8%
O=C(CCSc1ccccc1)NCC1CCCO1 (stereo unspecified) | 19%
Cc1ccc2cc(-c3noc(C4CCCCC4)n3)c(=O)[nH]c2c1 | -1%
O=C(c1cc(C2CC2)on1)N1CCN(c2ccc(F)cc2)CC1 | 5%
O=S(=O)(c1cccc(-n2cnnn2)c1)N1CCOCC1 | -3%
COCCn1nnnc1C(c1ccc(OC)c(OC)c1)N1CCc2ccccc21 (stereo unspecified) | 87%
COc1cc(C)c2occ(/C(C)=N\O)c2c1 | -1%
O=C(CN1C(=O)C2(OCCO2)c2ccccc21)c1ccc(Br)cc1 | 5%
COc1ccc(NC2CC(=O)N(c3cccc(C)c3)C2=O)cc1 (stereo unspecified) | 11%
O=C(CSc1n[nH]c(-c2ccc(S(=O)(=O)N3CCCCC3)cc2)n1)Nc1nccs1 | -24%
CCOCC(=O)Nc1cc(OC)c(Cl)cc1OC | 18%
CC1Cc2nc(SCC(=O)N3CCOCC3)n(-c3ccccc3)c(=O)c2S1 (stereo unspecified) | -14%
NS(=O)(=O)c1ccc(NC(=O)CSC2=NC(=O)C(c3ccccc3)C(=O)N2)cc1 (stereo unspecified) | 1%
CCOC(=O)Cn1nnnc1CN(Cc1ccc(OC)cc1)Cc1cc2cc(CC)ccc2[nH]c1=O | 30%
CCC(C)(C)n1c(=O)[nH]c2c(c1=O)CCC2 | 2%
CCCCCOC(=O)Cn1c(=O)oc2ccccc21 | 1%
